Screening results from PubChem.
Hsc70 ATP site = Hsc70 inhibitors, probe displacement, primary screen, biochemical, fluorescence polarization (AID 568). Hsc70 fluorescence polarization, probe displacement; higher % means a stronger effect; strong numbers were not always called active. displacement, % at 20 µM; hits with a dose series show IC50 in µM. 83,000 tested, under 10 active;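 active means displacement above 50% without optical interference and an IC50 on retest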;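 further: ATPase domain with a fluorescein-tagged ATP probe; 0% = vehicle and 100% = excess ADP; read after one hour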
WNV protease inh = WNV NS2B-NS3 proteinase inhibition | P06935 | WNV NS2B-NS3 protease, fluorogenic substrate Ex360/Em465; active compounds read low | z-score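 (tested at a level between 10 and 100 µM)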 | 65,000 compounds, 0.18% hits | AID 577;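 active means z-score at -3 or under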;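 further: score is relative to mean and spread of the compound wells of a plate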
Target sequence (P06935 1371-1501 limits assumed): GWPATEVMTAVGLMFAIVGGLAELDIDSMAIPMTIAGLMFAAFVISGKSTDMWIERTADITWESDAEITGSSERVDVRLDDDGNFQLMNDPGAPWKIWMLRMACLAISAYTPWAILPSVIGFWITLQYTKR
Target sequence (P06935 1502-1679 limits assumed): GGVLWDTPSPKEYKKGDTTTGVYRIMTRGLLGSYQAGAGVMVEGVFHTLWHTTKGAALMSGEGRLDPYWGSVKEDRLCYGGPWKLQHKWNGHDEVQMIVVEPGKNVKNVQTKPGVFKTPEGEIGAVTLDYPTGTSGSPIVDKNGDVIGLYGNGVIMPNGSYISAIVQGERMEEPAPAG
MT1-MMP promoter = inhibitors of MT1-MMP promoter transcription, cell-based, luciferase reporter, luminescence (AID 618); MT1-MMP promoter luciferase reporter cells, luminescence; calls from a first round at 10 µM; hits with a dose series show EC50 in µM; 87,000 compounds, 0.62% hits;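 active means over half of the reporter light lost at 10 µM or EC50 under 50 µM; inactive means the rest and hits that failed the dose series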;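 further: actives suppress MT1-MMP promoter-driven transcription so potencies describe inhibitors; HT1080 fibrosarcoma cells; overnight exposure; toxic or luciferase-blocking compounds were not removed from the actives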
* marks the source's active call; other numbers are inactive results; i = inactive; nt = not tested or not shown; + = active, no number.

The line under a structure holds: Hsc70 ATP site, WNV protease inh, MT1-MMP promoter
COc1ccc(-c2cnc(SCC(=O)Nc3ccc4c(c3)OCO4)n2Cc2ccco2)cc1
  -0.2%, 0.88, i
CC(c1ccccc1)N1C(=O)CC(Sc2ncccc2C(=O)O)C1=O (stereo unspecified)
  3.0%, -0.81, i
O=C(CCN1CCN(c2ccccc2F)CC1)Nc1ccc2c(c1)OCO2
  2.5%, 0.47, i
O=C(Cn1nc(C(F)(F)F)c2c1CCC2)NCc1ccc(Cl)cc1
  -6.5%, nt, i
COCCn1c(=S)[nH]c2cc(C(=O)N3CCN(Cc4ccc5c(c4)OCO5)CC3)ccc2c1=O
  -7.4%, -1.2, i
CC(=O)c1cc(C)ccc1OC(=O)c1cccnc1
  -6.1%, 0.88, i
COC(=O)CSc1snnc1-c1ccc(F)cc1
  3.1%, nt, i
CC1(C(=O)O)CCC(C(=O)NC2CCCCC2)C1(C)C (stereo unspecified)
  -0.2%, nt, i
CCN1CCN(CCCOc2ccc(-c3ccccc3)cc2)CC1
  4.3%, 0.2, i
Cc1ccc(C(=O)CC2(O)C(=O)N(CCc3ccccc3)c3ccc(Br)cc32)o1 (stereo unspecified)
  3.0%, -0.5, i
Cc1ccc2cc3c(N)c(C(=O)N4CCOCC4)sc3nc2c1
  0.0%, 0.91, i
COc1ccc(C(OC(=O)c2ccco2)C(=O)NC2CCCCC2)cc1 (stereo unspecified)
  1.5%, nt, i
CCCCn1c(=O)[nH]c(=O)c2c1nc(CN1C(=O)c3ccccc3S1(=O)=O)n2CCC
  -2.4%, 0.64, i
CC(C)CCn1c(SCC(=O)c2ccccc2)nc2c1c(=O)[nH]c(=O)n2C
  -6.7%, -0.54, i
O=C1CC(c2cccs2)c2cc3c(cc2N1)OCCO3 (stereo unspecified)
  -0.1%, -0.22, i
CCn1cc(C(=O)Nc2nncs2)c(=O)c2cc(F)c(N3CCN(C(=O)c4ccco4)CC3)cc21
  -2.4%, 1.5, i
COc1ccc(-c2nc(SC)n(S(=O)(=O)c3ccccc3)n2)cc1
  3.2%, 0.94, i
Cc1ccc(OCC(=O)Nc2ccccc2N2CCOCC2)c(C)c1
  2.7%, nt, i
COc1ccccc1CCNC(=O)CCSc1nc(-c2ccco2)cc(C(F)(F)F)n1
  -0.7%, nt, i
CCOCCCNC(=O)c1ccc2c(c1)N(Cc1ccccc1)C(=O)CS2=O (stereo unspecified)
  -2.2%, -0.56, i
CCN1CC=C2C(C#N)=C(N)C(C#N)(C#N)[C@H](c3cccc(OC)c3OC)[C@H]2C1
  31%, 0.15, i
c1ccc(-c2csc(Cc3nnc4n3CCCCC4)n2)cc1
  -1.3%, nt, i
c1ccc(OCc2nnc3sc(C4COc5ccccc5O4)nn23)cc1 (stereo unspecified)
  2.2%, 0.21, i
Cc1ccc(-c2cn3c(=S)[nH]nc3s2)cc1
  6.6%, 0.63, i
COc1ccc(CN2CCN(c3ncccn3)CC2)c(OC)c1
  -1.1%, 1.4, i
CCOC(=O)C1C(=O)CC(C)(O)C(C(=O)OCC)C1c1ccc(Br)cc1 (stereo unspecified)
  -2.0%, -0.49, i
O=C(O)CN1C(=O)CNC1=O
  1.4%, 0.63, i
CCCCN(Cc1ccccc1)S(=O)(=O)c1ccc2[nH]c(=O)oc2c1
  -1.2%, nt, i
O=C(O)CCCCCNC(=O)c1ccccc1Br
  -1.1%, nt, i
CCCCCn1c(CN2CCN(c3cccc(Cl)c3)CC2)nc2c1c(=O)[nH]c(=O)n2C
  -4.1%, -1.4, i
Cc1ccc(-c2nc(S(=O)(=O)c3ccc(F)cc3)c(SCC(=O)NCC3CCCO3)o2)cc1 (stereo unspecified)
  -1.6%, nt, i
O=C(NC1CCCc2ccccc21)c1cccnc1 (stereo unspecified)
  0.3%, 1.1, i
O=C(CCn1c(=O)sc2ccccc21)NCc1ccccc1
  -6.6%, -0.22, i
CCOC(=O)CCc1c(C)nc(SCC(=O)O)c(C#N)c1C
  -6.2%, -1.1, i
COc1ccc(CCNC(=O)c2cnn(-c3ccc(C)c(C)c3)c2NC(=O)c2ccco2)cc1OC
  -1.0%, 0.56, i
CCOc1ccc(/C=N/N(C)c2ccccc2)cc1OC
  2.7%, nt, i
O=C(Nc1cccc(S(=O)(=O)C(F)F)c1)c1ccc(S(=O)(=O)N2CCOCC2)cc1
  -3.8%, 0.35, i
NC(=S)n1[nH]c(-c2ccc([N+](=O)[O-])cc2)c(N=Nc2ccc(O)cc2)c1=O
  4.5%, nt, i
O=C(COC(=O)c1cncc(Br)c1)NC1CC1
  7.4%, nt, i
Cc1ccc(C)c2[nH]c(=O)c(CN(CC3CCCO3)C(=O)NC3CCCCC3)cc12 (stereo unspecified)
  -2.6%, -0.75, i
CCn1c(=O)c2cc(C(=O)N3CCCC3)sc2c2ccccc21
  2.8%, 0.67, i
CC1(C)CC(=O)C(C=NCCCn2ccnc2)=C(O)C1
  -4.5%, -0.58, i
CCC(C(=O)NC1CCCC1)N(C(=O)c1snc(C(N)=O)c1N)c1ccc2c(c1)OCCO2 (stereo unspecified)
  -0.3%, -0.97, i
COc1cc2c(=O)nc3n(c2cc1OC)C(c1ccccc1)N=C(N)N3 (stereo unspecified)
  0.7%, 0.7, i
CC1CN(CCC(=O)Nc2ccc3c(c2)CCC3)CC(C)O1 (stereo unspecified)
  -1.8%, 0.25, i
CCCCOC(=O)c1ccc(NC(=O)Nc2ccc(OC)c(OC)c2)cc1
  -0.7%, nt, i
O=c1c2[nH]c3ccccc3c2ncn1Cc1ccccn1
  -4.3%, 0.24, i
C=CCNC(=O)c1c(N)n(-c2ccc3c(c2)OCO3)c2nc3ccccc3nc12
  -10%, 1, i
COc1ccc(CCNC(=O)c2ccc(N3CCCC3=O)cc2)cc1OC
  -5.9%, 0.2, i
Cn1cnc([N+](=O)[O-])c1Nc1ccccc1O
  -0.7%, nt, i
COC(=O)c1c(C)[nH]c(C(=O)OCC(=O)NCC(C)C)c1C
  2.4%, nt, i
CCOC(=O)c1ccccc1NC(=O)c1c(O)c2ccccc2n(CC)c1=O
  -1.7%, -0.43, i
O=C(OCc1ccccc1Cl)c1ccc(-n2cnnc2)cc1
  1.4%, -0.96, i
O=C(CN1CCN(Cc2ccc3c(c2)OCO3)CC1)Nc1ccc2c(c1)OCO2
  -0.5%, nt, i
O=C(NCCN1CCCCCC1)C1CCN(S(=O)(=O)N2CCOCC2)CC1
  -1.9%, 1.1, i
Cc1cc(Cl)c(S(=O)(=O)NC(C(=O)O)C(C)C)cc1OCC(=O)NC1CCCCC1 (stereo unspecified)
  -0.9%, nt, i
O=C(Nc1nnc(-c2cccs2)o1)c1cccc(C(F)(F)F)c1
  5.1%, 0.16, i
COc1ccc(CCNS(=O)(=O)c2cccc3nsnc23)cc1OC
  2.2%, -0.38, i
Cc1c(OC(=O)c2ccc([N+](=O)[O-])cc2)c2c(c[n+]1C)COC(C)(C)OC2
  -2.2%, nt, i
CC1(C)NC(=O)N(CNc2cc(Cl)ccc2Cl)C1=O
  0.7%, 0.35, i

New compounds follow.
smiles,Hsc70 ATP site,WNV protease inh,MT1-MMP promoter
Cc1ccc(NC(=O)CN2CCC(C(=O)c3ccc(F)cc3)CC2)cc1,-2.3%,nt,i
COC(=O)c1[nH]c2ccc(Br)cc2c1NC(=O)CN1CCCCC1CCO (stereo unspecified),2.6%,nt,i
O=C(NC1CCCC1)C1(c2ccccc2)CCN(S(=O)(=O)c2ccccc2)CC1,2.2%,nt,i
O=C(NCCN1CCOCC1)c1cc(=O)[nH]c2ccc(Br)cc12,6.2%,0.32,i
CCc1c(C(=O)Nc2ccc(OC)cc2)[nH]c(C)c1C(C)=O,8.2%,-1.5,i
CCNC(=O)COc1ccc(S(=O)(=O)Nc2ccccc2)cc1,-2.8%,nt,i
COc1cccc(/C=N/n2c(CO)nc3ccccc32)c1OC,-0.6%,-2.1,i
CC(=O)N1CCCc2cc(S(=O)(=O)N(C)Cc3ccccc3)ccc21,-2.6%,1,i
COc1ccc(CCn2c(=N)c(C#N)cc3c(=O)n4ccccc4nc32)cc1,-16%,0.09,i
c1ccc(-c2nnc(-c3ccccn3)nn2)nc1,1.2%,0.47,i
COC(=O)c1ccc(C(=O)OC)c(NC(=O)c2oc(C)nc2C)c1,-1.8%,-0.61,i
COc1cc2c(cc1OC)C(c1ccccc1O)N(C1CC(=O)N(c3ccccc3)C1=O)CC2 (stereo unspecified),-0.3%,0.23,i
COc1ccc2c(c1)C1=NN(/C(C)=C\C(C)=O)C(c3ccccc3)C1CC2 (stereo unspecified),-4.9%,nt,i
Cc1cc2c(=O)n(Cc3ccco3)c(SCC(=O)NCc3ccco3)nc2s1,-4.8%,-0.95,i
CC1Cc2ccccc2N1C(=O)C1CCCN(S(=O)(=O)c2cccc3cccnc23)C1 (stereo unspecified),-0.6%,0.16,i
O=c1c2[nH]c3ccc(F)cc3c2ncn1CCN1CCN(Cc2ccccc2)CC1,-0.3%,-0.26,i
CCOc1cc(C)nc(N2CCN(C3CCCCC3)CC2)n1,8.9%,-1.3,i
Cc1cccn2c(=O)c3cc(C#N)c(=NC(=O)c4ccccc4)n(Cc4ccco4)c3nc12,14%,2.9,i
Cc1sc2c(c1C)c(=O)nc1scc(CC(=O)O)n12,3.4%,nt,i
COc1cc(C)c(S(=O)(=O)n2nnc3ccccc32)cc1C,-2.8%,nt,i
CCN(CC)CCNC(=O)CCn1c(=S)[nH]c2cc3c(cc2c1=O)OCO3,0.3%,0.01,i
COc1ccc(-n2c(SC)nc(O)cc2=O)cc1,2.7%,2,i
CC(=O)Oc1ccccc1C1OC(=O)c2ccccc2N1C(C)=O (stereo unspecified),3.4%,0.07,i
COc1ccc(-n2c(O)c(C=NC3CC3)c(=O)[nH]c2=O)cc1,-14%,1.6,i
COc1ccc(CCCc2nnc(SCC(=O)Nc3cc(C)c(C)cc3Br)o2)cc1,-3.3%,-2.5,i
COc1cccc(OC)c1C(=O)N1CCN(Cc2ccccc2C)CC1,-2.1%,0.32,i
N#CC1=C(N)Oc2n[nH]c(-c3cccs3)c2C1c1cccnc1 (stereo unspecified),-0.7%,-0.37,i
Cc1ccc2nc3c(cc(C#N)c(=O)n3-c3nccs3)c(=O)n2c1,7.3%,4.5,i
Cc1cc(Cl)c(S(=O)(=O)NC2CCCCC2)cc1OCC(=O)Nc1nncs1,5.7%,0.32,i
CCCn1c(NC(=O)c2cccc(C)c2C)nc2ccccc21,-4.3%,nt,i
COc1cc(CN2C(=O)C(NC(=O)c3ccco3)(C(F)(F)F)C3=C2CC(C)(C)CC3=O)cc(OC)c1 (stereo unspecified),-2.2%,nt,i
COc1cc(-c2nnc3n2N=C(c2ccccc2)CS3)cc(OC)c1OC,0.5%,-0.81,+
O=C(COC(=O)c1cccnc1Nc1cccc(C(F)(F)F)c1)NCCN1C(=O)CSC1=O,-4.6%,-0.5,i
CCN(CC)CCNC(=O)c1ccccc1N,2.8%,0.91,i
Cc1nc(N2CCN(Cc3ccccc3)CC2)nc2c1C(=O)CC(C)C2 (stereo unspecified),5.0%,0.86,i
Cc1cc(C)cc(N(C(C)C(=O)N2CCCCC2)S(C)(=O)=O)c1 (stereo unspecified),3.1%,-0.38,i
CCCCOC(=O)Cn1c(=N)n(CCN2CCOCC2)c2ccccc21,0.7%,0.3,i
Nn1c(SCc2nc3ccccc3[nH]2)nnc1C1CCCCC1,-3.8%,1.2,i
Cc1cc(C)nc(NS(=O)(=O)c2ccc(NC(=O)CCCN3C(=O)c4ccccc4C3=O)cc2)n1,-0.7%,-0.21,i
CCCSc1nc2c(cnn2-c2ccccc2)c(=O)[nH]1,1.6%,0.51,i
CN(Cc1nc2ccccc2n1C)S(=O)(=O)c1ccc(Cl)cc1,2.2%,-0.37,i
CCCCN(CC)C(=O)CN1C(=O)c2ccccc2C1=O,4.5%,nt,i
COc1cc(C(=O)N2CCN(C/C=C/c3ccccc3)CC2)cc(OC)c1OC,4.6%,nt,i

Some of the compounds tested (hit frequency here may not be typical).
